Source: PubChem BioAssay
PrP UTR inh = inhibition of PrP 5' UTR reporter expression; actives 0.35% (n = 340,000); inhibition, % (test concentration not listed); cell-based PrP 5' UTR mRNA reporter, plate reader;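 active = every replicate at 50% or more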;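 note: 0 = median of the neutral control wells; tested in H4 reporter cells; numbers are from one replicate; inactives centre near -14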
BJeLR lethal = kills HRASV12-expressing BJeLR cells; BJeLR (HRASV12) viability, CellTiter-Glo ATP luminescence, 48 h; reference of the scale not given here; actives 0.17% (n = 300,000); inhibition, % (test concentration not listed);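 active = replicate mean above 50%; inconclusive = above 50% but judged a plate artefact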;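 note: 50 nL library stock added to about 25 µL; numbers are from one replicate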
Autofluor counter = flagged as autofluorescent in microsphere protease counterscreen; actives 3.1% (n = 360,000); compound autofluorescence counterscreen, microsphere flow cytometry; hits give high values; AID 624483; fluorescence intensity (test concentration not listed);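 active = at least 3 SD above the mean of all compounds, about 16000 in these data; inconclusive = too few beads counted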;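 note: 100 nL of 1 mM stock went into each well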
RN4220 kill = S. aureus RN4220 growth inhibition; OD600, 16 h; inhibition, % (test concentration not listed); actives 0.33% (n = 330,000); AID 1259311;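 active = z-score of -3 or lower and OD600 up to 0.18 on both plates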;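 note: plate controls were untreated cells for no effect and reference antibiotic for full effect; stock transfer was 100 nL into about 80 µL; one replicate is shown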
Mtb hypoxia rep = Mtb hypoxia fluorescent reporter inhibition. M. tuberculosis hypoxia-regulated fluorescent reporter, fluorescence. fluorescence inhibition, % (concentration not given with the values). actives 0.1% (n = 300,000);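 active = 35 to 45% if threefold the growth effect, above 45% if 1.5-fold the growth effect; inactive = the rest, general growth blockers included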;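 note: wells of about 50 µL received 100 nL stock; 0% = vehicle wells and 100% = reference inhibitor wells; whole bacteria with a GFP reporter of the hypoxia response; strong numbers were not always called active; many hits fall short of the cut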
ugtP null kill = growth inhibition of S. aureus ugtP deletion strain | actives 0.54% (n = 330,000) | S. aureus RN4220 ugtP deletion, OD600 growth, 16 h; some inactives read as strong as hits | growth inhibition, % (test concentration not listed);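 active = z-score under -3 and OD600 up to 0.15 on both plates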;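 note: plate controls were untreated wells for no effect and antibiotic for full effect; wells of about 80 µL received 100 nL stock; the first replicate is given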
Mtb hypoxia rep growth = second read-out of Mtb hypoxia rep, no call of its own (marks repeat the call); growth inhibition, %; measured here: M. tuberculosis growth (absorbance);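 0% = vehicle and 100% = reference antibiotic; read after six days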
Active calls of the source: *; u = inconclusive; x = not tested or not shown.

SMILES | PrP UTR inh | BJeLR lethal | Autofluor counter | RN4220 kill | Mtb hypoxia rep | Mtb hypoxia rep growth | ugtP null kill
Cc1onc(-c2c(F)cccc2Cl)c1C(=O)NC(=S)NCc1cccnc1 | 0 | -8 | 2524 | 8.7 | 8 | 0 | -7
c1ccc(CN2C3=NCCN3c3ccccc32)cc1 | -8 | -8 | 2571 | 2.4 | 10 | 14 | 1
COc1ccc(NC(=O)N2CC(C)OC(C)C2)cc1OC (stereo not drawn) | -30 | 0 | 24184* | 1.4 | 3 | 4 | 7
COc1ccc(-c2csc(NC(=O)COC(=O)c3ccco3)n2)cc1 | -94 | -8 | 8106 | 6.6 | 13 | 16 | -4
Clc1ccc(SCCN2CCNCC2)cc1 | -1 | -5 | 2485 | x | x | x | x
CCCNCC(O)Cn1c2ccccc2n2c(=O)cc(C)c(C#N)c12 (stereo not drawn) | -41 | 0 | 3098 | 3.1 | 6 | 7 | 0
CCOc1ccc2nc(NC(=O)CS(=O)(=O)c3ccc(C)cc3)sc2c1 | -17 | -6 | 15633 | 6.5 | 9 | 3 | -9
COc1ccc(-c2ccc(SCC(=O)Nc3cc(C)on3)nn2)cc1OC | -33 | 1 | 25486* | 5.4 | 1 | -6 | 5
CCN1C(=O)NC(=O)/C(=C/c2cc(C)n(-c3sc(C)c(C)c3C#N)c2C)C1=O | -6 | -16 | 3057 | 1.4 | 4 | 10 | 0
C/C(CC(=O)Nc1cc(C)cc(C)c1)=N\NC(=O)c1ccccn1 | -16 | 5 | 2085 | x | x | x | x
O=C(NNC(=O)c1ccccc1Cl)c1ccco1 | -3 | 3 | 4116 | 2.6 | 10 | 5 | 3
CCCOc1ccc(C(=O)CCC(=O)OCC(=O)N2CCN(S(=O)(=O)c3ccc(C)cc3C)CC2)cc1 | 2 | x | 3977 | 0.2 | -1 | -3 | -2
Cc1ccc(S(=O)(=O)N(C)CCCC(=O)Nc2cccc3ccccc23)cc1 | -15 | 5 | 2457 | 1.0 | 12 | 3 | -5
CSCCC(NC(=O)c1ccccc1Cl)C(=O)N1CCCC(C)C1 (stereo not drawn) | -11 | x | u | 0.6 | -9 | -7 | 5
CC(=O)N1CCCc2cc(S(=O)(=O)N3CCCC(C(=O)N4CCN(c5cccc(Cl)c5)CC4)C3)ccc21 (stereo not drawn) | 3 | 15 | 4821 | 5.9 | 12 | 5 | -3
CC(=O)Nc1sc(NC(=O)c2ccc(C)cc2)nc1-c1cccs1 | -21 | -2 | 2943 | 4.9 | x | x | 5
O=C(NCCCN1CCOCC1)c1ccc(Cl)cc1Cl | 21 | 5 | 4199 | 1.9 | 5 | 7 | 4
CCN(c1ccc(NC(=O)COC(=O)c2ccc([N+](=O)[O-])o2)cc1)C(C)C | -43 | x | 3935 | 7.7 | 14 | 11 | 0
COc1cc(N)c(Cl)cc1NC(=O)c1ccccc1 | -16 | -16 | 6097 | 3.7 | -4 | 5 | -10
OCCC1CN(C2CCC2)CCN1Cc1ccc(F)c(F)c1 (stereo not drawn) | 14 | -15 | x | 5.4 | 14 | 6 | 6
Cc1csc(NC(=O)CSc2nc3ccccc3c(=O)[nH]2)n1 | -10 | -6 | 10517 | 2.3 | -17 | -5 | 2
Cc1cc(C)nc(N2N=C(C(C)(C)C)CC2=O)n1 | -9 | -8 | 23425* | 5.3 | 15 | 7 | -4
CC(=O)c1cccc(N/C=C\c2nnnn2-c2ccc(F)cc2)c1 | -39 | 3 | 2508 | 3.5 | 10 | 6 | 4
COc1ccc(NC(=O)CN(C)C(=O)Cc2n[nH]c(=O)c3ccccc23)cc1 | 7 | 2 | 5548 | -0.9 | -7 | 12 | 0
CCCn1nc2cc(C(=O)NCc3ccc(OC(F)(F)F)cc3)ccc2c1OCC | -18 | 5 | 4105 | 4.0 | -8 | -2 | -13
CC(=N\NC(=O)c1ccccc1)/C(=N/O)C(=O)Nc1ccccc1 | -1 | 5 | 5861 | x | x | x | x
CSc1ccc(S(=O)(=O)NCC(=O)OCC(=O)N2CCCC2=O)cc1[N+](=O)[O-] | -8 | 0 | u | 9.0 | -1 | 1 | 14
COc1ccc(C)cc1NC(=O)COC(=O)c1ccc(OCc2ccc(Cl)cc2Cl)c(OC)c1 | -33 | -13 | 2085 | 17 | 3 | 5 | -8
Cc1ccc(C(=O)Nc2nc(N)n(-c3ccccc3)n2)cc1 | x | -9 | 5753 | 0.8 | 1 | 1 | -3
CCN1CCN(Cc2c3ccccc3cc3ccccc23)CC1 | -21 | -6 | 3161 | -2.2 | 12 | 11 | 17
CN(C)c1cc(N)c2c(n1)CCC2 (tested in a mixture with another compound) | -21 | 2 | 8613 | 2.3 | -1 | 1 | 2
Cc1ccc(N(C(=O)c2snc(C(N)=O)c2N)C(C(=O)NC2CCCC2)c2ccco2)cc1 (stereo not drawn) | 7 | -7 | 3262 | -3.4 | -1 | 7 | -2
CC(C)c1ccccc1NC(=O)C1C2C=CC(C2)C1C(=O)O (stereo not drawn) | -31 | -2 | 4707 | x | x | x | x
CC(=O)NNC(=O)CCC(=O)Nc1ccccc1 | 12 | 5 | 11331 | 3.6 | 1 | 2 | 8
O=C(CCn1c(=S)[nH]c2ccccc2c1=O)NCCc1ccc(Cl)cc1 | -22 | 12 | 3774 | 2.9 | 13 | 5 | 5
COC(=O)C1CN(C(=O)C(C)Oc2ccc(C)c(C)c2)c2ccccc2O1 (stereo not drawn) | -12 | -2 | 3711 | 3.3 | -7 | 8 | 3
COc1cc(OC)cc(C(=O)NCCN2CCOCC2)c1 | 2 | 1 | 3781 | 2.6 | x | x | 5
O=S(=O)(NC1=NCCCCCC1)c1cccs1 | -8 | -3 | 10255 | 1.0 | -4 | -9 | 7
O=C(COc1ccc(Cl)cc1)Nc1ccc2oc(-c3ccncc3)nc2c1 | -2 | 10 | 3306 | 0.0 | x | x | -7
O=S(=O)(c1ccccc1)N1N=C(c2cccs2)CC1c1cccc(O)c1 (stereo not drawn) | -17 | 9 | 5615 | 0.3 | 12 | -3 | 4
COC(=O)Cc1ccc(NC(=O)c2ccc(Br)o2)cc1 | -53 | 4 | 2954 | -14 | 8 | 7 | -6
CC1CC(C)CN(C(=O)c2ccc(S(=O)(=O)N3CCCC3)cc2)C1 (stereo not drawn) | -2 | -1 | u | 0.5 | 11 | 6 | 4
O=c1c2cc(Br)cc(Br)c2oc2nc3n(c(=O)c12)CCCS3 | x | -3 | x | 4.9 | 11 | 18 | 0
NC(=S)N/N=C/C=C/c1ccccc1 | -23 | -15 | 2438 | x | x | x | x
O=C(/C=C/c1ccccc1)N1CCC(Cc2ccccc2)CC1 | -48 | -16 | 2241 | x | x | x | x
CCOc1ccc(NC(=O)C(C)Sc2nccn2C)cc1 (stereo not drawn) | -7 | 2 | 5907 | 3.3 | 8 | -5 | 2
O=C(NC1CCCc2ccccc21)c1ccccc1Br (stereo not drawn) | -21 | -4 | 8390 | 22 | 9 | 10 | 13
CC1CCCCN1C(=O)COC(=O)C1CCN(S(=O)(=O)c2ccc3c(c2)OCCO3)CC1 (stereo not drawn) | -13 | 2 | 17025* | 0.1 | -1 | -1 | 3

Part of the list above, reformatted.
| Compound | PrP UTR inh | BJeLR lethal | Autofluor counter | RN4220 kill | Mtb hypoxia rep | Mtb hypoxia rep growth | ugtP null kill |
| --- | --- | --- | --- | --- | --- | --- | --- |
| COC(=O)C1CN(C(=O)C(C)Oc2ccc(C)c(C)c2)c2ccccc2O1 (stereo not drawn) | -12 | -2 | 3711 | 3.3 | -7 | 8 | 3 |
| COc1cc(OC)cc(C(=O)NCCN2CCOCC2)c1 | 2 | 1 | 3781 | 2.6 | x | x | 5 |
| O=S(=O)(NC1=NCCCCCC1)c1cccs1 | -8 | -3 | 10255 | 1.0 | -4 | -9 | 7 |
| O=C(COc1ccc(Cl)cc1)Nc1ccc2oc(-c3ccncc3)nc2c1 | -2 | 10 | 3306 | 0.0 | x | x | -7 |
| O=S(=O)(c1ccccc1)N1N=C(c2cccs2)CC1c1cccc(O)c1 (stereo not drawn) | -17 | 9 | 5615 | 0.3 | 12 | -3 | 4 |
| COC(=O)Cc1ccc(NC(=O)c2ccc(Br)o2)cc1 | -53 | 4 | 2954 | -14 | 8 | 7 | -6 |
| CC1CC(C)CN(C(=O)c2ccc(S(=O)(=O)N3CCCC3)cc2)C1 (stereo not drawn) | -2 | -1 | u | 0.5 | 11 | 6 | 4 |
| O=c1c2cc(Br)cc(Br)c2oc2nc3n(c(=O)c12)CCCS3 | x | -3 | x | 4.9 | 11 | 18 | 0 |
| NC(=S)N/N=C/C=C/c1ccccc1 | -23 | -15 | 2438 | x | x | x | x |
| O=C(/C=C/c1ccccc1)N1CCC(Cc2ccccc2)CC1 | -48 | -16 | 2241 | x | x | x | x |
| CCOc1ccc(NC(=O)C(C)Sc2nccn2C)cc1 (stereo not drawn) | -7 | 2 | 5907 | 3.3 | 8 | -5 | 2 |
| O=C(NC1CCCc2ccccc21)c1ccccc1Br (stereo not drawn) | -21 | -4 | 8390 | 22 | 9 | 10 | 13 |
| CC1CCCCN1C(=O)COC(=O)C1CCN(S(=O)(=O)c2ccc3c(c2)OCCO3)CC1 (stereo not drawn) | -13 | 2 | 17025* | 0.1 | -1 | -1 | 3 |

Carrying on.
SMILES | PrP UTR inh | BJeLR lethal | Autofluor counter | RN4220 kill | Mtb hypoxia rep | Mtb hypoxia rep growth | ugtP null kill
CC1(C)CC(=O)c2sc(NC(=O)CCS(=O)(=O)c3ccccc3)nc2C1 | -23 | 10 | 6631 | -7.6 | 12 | 11 | -2
CCN1C[C@]2(C)CCC(O)[C@@]34C5CC6C(OC)C[C@](O)(C(CC23)C14)C5C6O (stereo partly drawn) | x | x | x | 3.9 | 3 | 10 | -2
COc1ccc(C(=O)NN=Cc2cccnc2)cc1 | x | x | x | 2.2 | 0 | 4 | 15
C=CCN1C(=O)CN=C1Nc1ccc(F)cc1 | -24 | 0 | 4048 | 4.9 | 13 | 6 | 5
O=C(NNC(=O)c1cc2ccccc2cc1O)Nc1ccc(F)cc1F | -6 | 8 | 4310 | 3.4 | 7 | 5 | 1
Cc1ccc2c(COC(=O)c3ccccc3Br)cc(=O)oc2c1 | -60 | -5 | 5271 | 4.2 | -19 | -4 | -2
CCCn1c(COc2ccccc2)nc2ccccc21 | -32 | -4 | 3009 | 0.8 | 17 | 8 | 0
COc1ccccc1Nc1nc(Cl)c(C=O)s1 | -23 | 7 | 4434 | 2.9 | 12 | 10 | 2
O=C(Nc1cccc2ncccc12)c1cc([N+](=O)[O-])ccc1Cl | -19 | -1 | 3632 | 6.9 | 0 | 13 | 5
Cc1cccn2c(=O)c(/C=N/O)c(N3CCCCC3)nc12 | -9 | -7 | 7940 | x | x | x | x
O=C(NCc1ccccc1Cl)C1CCN(S(=O)(=O)N2CCOCC2)CC1 | -37 | 3 | 5691 | 0.2 | 11 | -2 | 2
Cc1ccc(N2C(=O)N(CC(=O)Nc3ccc(F)c(F)c3)C(=O)C2C)cc1 (stereo not drawn) | -20 | 5 | x | 0.5 | 7 | 1 | -5
CCC1CCc2sc(C(=O)NCC(c3ccccc3OC)N3CCCC3)cc2C1 (stereo not drawn) | 5 | x | 7986 | 1.3 | 7 | 1 | 1
CCOC(=O)c1ccc(NC(=O)CNC(=O)C23CC4CC(CC(C4)C2)C3)cc1 | -9 | 1 | 7163 | 4.2 | 14 | 1 | 10
CN(Cc1ccccc1)C(=O)Cn1c(=O)oc2cc(S(=O)(=O)N3CCCC3)ccc21 | -3 | 2 | 5770 | 2.5 | 3 | -1 | 4
C=CCCN(Cc1ccccc1)S(=O)(=O)c1cc(Br)ccc1Br | -11 | x | 3637 | 2.8 | 14 | 7 | 4
Cc1ccc2[nH]c(=O)c(CN(Cc3cccs3)C(=S)NCC3CCCO3)cc2c1 (stereo not drawn) | -3 | 4 | 2277 | 1.4 | 0 | 16 | 0
CCN(C(=S)Nc1cccnc1)c1ccccc1 | -24 | 3 | 3836 | 15 | 14 | 2 | 8
CCOc1ccc(NC(=O)CS(=O)CC(=O)N(CC(=O)NC(C)(C)C)C2CCCC2)cc1 (stereo not drawn) | -6 | -1 | 4455 | -1.9 | 0 | -1 | -1
CC(=NNC(=O)c1ccc(Cn2cc(Br)cn2)o1)c1cccc(NC(=O)C(C)C)c1 | x | x | x | -0.4 | 2 | -8 | -5
COc1ccc2[nH]c(C)c(CCNC(=S)Nc3ccccc3C)c2c1 | 1 | -16 | 5197 | 4.9 | 11 | 9 | 3
